nsP2pro inh – Primary qHTS for inhibitors of NSP2Pro chikungunya virus (CHIKV) | Polyprotein P1234 (Chikungunya virus (strain S27-African prototype)), Q8JUX6 | FRET peptide cleavage, nsP2pro, fluorescence 1 h | Potency, µM (doses to about 24.9 µM), for the others: at the highest dose activity change, negative = inhibition, usual class: inhibitors | hit rate 1.1% among 31,000; active means well fitted inhibition curve with a large enough effect; inconclusive means small, poorly fitted or top-dose-only effect; inactive means no such curve, though single readings can be large or run the other way; note: nearly all actives have a fitted effect of over 60% in size; a reference inhibitor and vehicle were the controls
Target sequence (Q8JUX6 whole entry, looked up): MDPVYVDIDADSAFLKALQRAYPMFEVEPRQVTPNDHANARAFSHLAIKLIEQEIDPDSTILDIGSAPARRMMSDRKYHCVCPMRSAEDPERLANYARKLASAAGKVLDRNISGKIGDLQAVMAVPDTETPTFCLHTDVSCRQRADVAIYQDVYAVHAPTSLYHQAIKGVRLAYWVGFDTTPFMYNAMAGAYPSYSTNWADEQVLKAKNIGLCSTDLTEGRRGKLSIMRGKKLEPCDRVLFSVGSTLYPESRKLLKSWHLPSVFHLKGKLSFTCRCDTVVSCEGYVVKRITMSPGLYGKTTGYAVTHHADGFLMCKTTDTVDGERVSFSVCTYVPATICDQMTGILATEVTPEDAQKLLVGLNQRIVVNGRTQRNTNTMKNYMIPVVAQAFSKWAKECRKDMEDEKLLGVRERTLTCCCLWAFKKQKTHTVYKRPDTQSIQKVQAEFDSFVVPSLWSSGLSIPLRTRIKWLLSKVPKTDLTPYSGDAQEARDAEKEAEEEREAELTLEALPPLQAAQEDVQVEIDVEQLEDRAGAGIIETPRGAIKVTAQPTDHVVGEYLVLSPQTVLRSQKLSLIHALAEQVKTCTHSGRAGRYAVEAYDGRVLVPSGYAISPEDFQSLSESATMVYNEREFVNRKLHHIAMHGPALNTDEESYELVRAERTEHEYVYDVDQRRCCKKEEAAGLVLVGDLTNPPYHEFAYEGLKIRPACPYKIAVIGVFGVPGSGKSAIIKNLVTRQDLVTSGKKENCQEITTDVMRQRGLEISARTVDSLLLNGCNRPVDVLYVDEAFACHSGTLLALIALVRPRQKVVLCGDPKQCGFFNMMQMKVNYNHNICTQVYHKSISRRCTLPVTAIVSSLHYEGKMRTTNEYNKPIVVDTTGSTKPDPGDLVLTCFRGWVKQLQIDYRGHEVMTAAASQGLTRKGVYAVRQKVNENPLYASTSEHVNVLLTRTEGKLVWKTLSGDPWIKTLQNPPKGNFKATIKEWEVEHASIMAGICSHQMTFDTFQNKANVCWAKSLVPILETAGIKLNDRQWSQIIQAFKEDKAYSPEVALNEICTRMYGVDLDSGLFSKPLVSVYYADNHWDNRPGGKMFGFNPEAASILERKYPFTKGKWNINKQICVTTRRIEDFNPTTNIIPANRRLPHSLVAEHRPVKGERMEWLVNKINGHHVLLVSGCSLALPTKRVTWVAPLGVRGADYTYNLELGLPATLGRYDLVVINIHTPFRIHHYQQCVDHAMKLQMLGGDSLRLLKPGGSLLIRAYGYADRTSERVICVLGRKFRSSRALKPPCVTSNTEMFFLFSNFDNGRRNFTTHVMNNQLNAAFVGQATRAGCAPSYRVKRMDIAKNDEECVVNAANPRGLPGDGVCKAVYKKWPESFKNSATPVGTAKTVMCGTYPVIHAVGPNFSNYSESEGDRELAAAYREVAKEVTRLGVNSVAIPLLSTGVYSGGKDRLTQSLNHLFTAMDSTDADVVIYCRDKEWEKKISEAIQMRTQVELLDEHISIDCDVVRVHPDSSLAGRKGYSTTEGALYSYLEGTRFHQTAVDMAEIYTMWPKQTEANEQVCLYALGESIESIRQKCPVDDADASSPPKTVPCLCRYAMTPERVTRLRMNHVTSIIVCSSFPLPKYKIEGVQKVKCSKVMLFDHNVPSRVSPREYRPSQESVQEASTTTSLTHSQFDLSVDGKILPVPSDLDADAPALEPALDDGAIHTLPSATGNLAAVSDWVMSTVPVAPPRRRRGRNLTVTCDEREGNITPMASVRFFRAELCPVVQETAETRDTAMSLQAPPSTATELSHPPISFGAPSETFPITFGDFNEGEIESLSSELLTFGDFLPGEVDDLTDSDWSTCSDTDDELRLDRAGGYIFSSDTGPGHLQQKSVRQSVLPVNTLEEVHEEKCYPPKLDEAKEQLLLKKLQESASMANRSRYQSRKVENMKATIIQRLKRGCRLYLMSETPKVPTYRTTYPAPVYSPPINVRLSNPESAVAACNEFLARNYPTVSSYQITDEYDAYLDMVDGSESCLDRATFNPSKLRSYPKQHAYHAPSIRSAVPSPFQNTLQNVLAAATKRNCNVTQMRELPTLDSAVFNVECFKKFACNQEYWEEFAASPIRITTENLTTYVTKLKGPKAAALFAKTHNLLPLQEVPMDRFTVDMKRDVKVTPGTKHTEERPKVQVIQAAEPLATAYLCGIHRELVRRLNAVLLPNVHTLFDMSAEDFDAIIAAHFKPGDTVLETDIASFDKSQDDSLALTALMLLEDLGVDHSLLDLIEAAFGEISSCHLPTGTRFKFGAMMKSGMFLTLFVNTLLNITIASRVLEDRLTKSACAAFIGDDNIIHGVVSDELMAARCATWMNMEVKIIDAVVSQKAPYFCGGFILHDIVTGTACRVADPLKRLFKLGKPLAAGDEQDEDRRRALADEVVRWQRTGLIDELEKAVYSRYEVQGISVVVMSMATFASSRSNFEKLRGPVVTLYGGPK
Numbers without * were called inactive; i = inactive; ? = inconclusive; & = joins results of further samples; [ ] = remark or other dose. % is set by controls: 0 for no effect and ±100 for the full control effect; potency is the fitted concentration of half-maximal effect.

SMILES	nsP2pro inh
CC(NC(=O)c1ccc2c(c1)CCN2S(C)(=O)=O)c1ccccc1 (stereo unspecified)	-6%
CC1=C[C@@H](CN2CCC(O)CC2)[C@H](C(C)C)C[C@H]1Cc1nnc(-c2ccncc2)o1	-6%[39.2 µM]
COc1ccc2c3ccnc4ccc(=O)n(c2c1)c43	8%
Cc1cc(NS(=O)(=O)c2ccc(NC(=O)Cc3ccc(Cl)c(Cl)c3)cc2)on1	i
COc1ccc2nc(N(Cc3cccnc3)C(=O)c3ccco3)sc2c1	-11%
CCNc1ncnc2sc3c(c12)CCN(Cc1ccco1)C3	-7%
COc1ccc2c(c1)c(CC(=O)OC/C=C(\C)CC/C=C(\C)CCC=C(C)C)c(C)n2C(=O)c1ccc(Cl)cc1	-3%
O=C(Nc1ccc(F)cc1)c1ccnc2[nH]ccc12	2%[39.2 µM]
Cc1ccc(-c2cc3c(n2-c2ccc(C)cc2)CC(C)(C)CC3=O)cc1	-15%
NC(=O)c1c(NC(=O)c2ccncn2)sc2c1CCCC2	4%
COc1ccc(CC(=O)Nc2ccc(S(=O)(=O)Nc3cc(C)on3)cc2)cc1C	3%
CN1CCN(c2ccc(-c3noc([C@@H]4CCCN4Cc4ccccc4)n3)cn2)CC1	i
COc1cccc(-c2ccc(NC(=O)C3CCCN3Cc3cnn(C)c3)cc2)c1 (stereo unspecified)	i
Cc1ccc(OC(=O)CSc2nnc(-c3ccc4c(c3)OCO4)o2)c(C)c1	-21%
Cc1nc2c(c(C)c1CCC(=O)NCc1ccc(F)cc1)c(=O)n(C)c(=O)n2C	-11%
CCN(C(=O)CN(C)S(=O)(=O)c1ccc2c(c1)c(=O)n(C)c(=O)n2C)c1ccc(OC)cc1	-16%
O=C(c1ccc(F)cc1)N1CCC(c2nc3ccccc3o2)CC1	-17%
CC(=O)c1ccc(NC(=O)CSc2nnc3ccc(-c4ccc(Br)cc4)nn23)cc1	-15%
CC1(C)C[C@H](NCc2ccc(CO)o2)[C@@]2(CCC(=O)N3CCOCC3)CC[C@](C)(O)C[C@@H]12	-4%
COc1ccccc1OCC(=O)N(Cc1ccc(Cl)cc1)CC1CCCO1 (stereo unspecified)	-17%
CCOc1ccccc1NS(=O)(=O)c1cnc(N)nc1	-14%
CCCc1cnc2c(c1SCC(=O)N(C)c1ccccc1)c(=O)n(C)c(=O)n2C	-6%
COC(=O)c1ccc(O)c2ncc(N(C)C)cc12	i
C=C1CC[C@@H]2[C@](C)(CO)[C@H](O)CC[C@@]2(C)[C@@H]1C/C=C1/C(=O)OCC1OC(=O)/C(=C/CO)C(O)C[C@@H]1C(=C)CC[C@@H]2[C@](C)(CO)[C@H](O)CC[C@]21C (stereo partly specified)	-6%[10 µM]
COCC1CN(C(C)=O)CC12CCN(C(=O)C1CC=CC1)CC2 (stereo unspecified)	0%
O=C(/C=C/c1ccc(O)cc1)OC[C@@]1(O)C=C[C@@H]2C(C(=O)O)=CO[C@@H](O[C@@H]3O[C@H](CO)[C@@H](O)[C@H](O)[C@H]3O)[C@@H]21	147%[activator][10 µM]
O=C(Nc1ccc(Cl)cc1F)c1cc(S(=O)(=O)NCc2ccc3c(c2)OCO3)ccc1F	-6%
Cc1cc(C(=O)N2CCCCc3ccccc32)ccc1CNC(=O)N1CCC[C@H]1C(=O)N(C)C	-5%
CC(C)NS(=O)(=O)c1ccc(OCC(=O)N2CCN(c3ccccc3F)CC2)cc1	-19%
COc1ccc(CCNC(=O)c2ccc3c(c2)N(Cc2ccccc2F)C(=O)c2ccccc2S3(=O)=O)cc1OC	-20%
NCCNCCNCCN	86%[activator]
NCC(=O)N1CCC2(CC1)CN([S+](=O)([O-])c1ccccc1)CCO2	-11%
C=C1[C@@H](OC(C)=O)CC[C@@]2(C)[C@@H](OC(C)=O)[C@H](OC(C)=O)C3=C(C)C[C@H](OC(=O)C(C)CC)[C@@H]([C@@H](OC(C)=O)[C@H]12)C3(C)C (stereo partly specified)	29%[10 µM]
N#Cc1cnc2cnc(NCc3cccnc3)cc2c1Nc1ccc(F)c(Cl)c1	98%[activator]
O=C1CC(c2ccccc2)N(C(=O)CNC(=O)c2n[nH]c3ccccc23)CCCCCCN1 (stereo unspecified)	-6%
CC(=O)OC[C@@]12[C@@H](OC(C)=O)C[C@@H](C)[C@](C)([C@@H]3C[C@H]4C=CO[C@H]4O3)[C@H]1CCC[C@]21CO1	4%[10 µM]
CCN1CCCC1Cn1c(-c2ccccc2)nc2c(N(CCOC)CCOC)nc(C)nc21 (stereo unspecified)	-7%
O=C(NCCc1ccc(Cl)cc1)c1ccc(CSCc2ccc(Cl)cc2)o1	-19%
COc1ccccc1NC(=O)Cn1c(=O)n(CC2CCC(C(=O)NCCc3ccccc3)CC2)c(=O)c2ccccc21 (stereo unspecified)	-19%
C=C1C(=O)O[C@@H]2C[C@H](C)[C@@H]3CC(=O)[C@H](O)[C@@]3(C)C[C@H]12	?
CCCCn1c(=O)c2oc3ccccc3c2n(Cc2cccc(F)c2)c1=O	-26%
CCNC(=O)c1ccc(-c2ccc3ncnc(NCC(C)(C)C)c3c2)o1	-3%
COc1ccccc1N1CCN(c2c3c(nc4nncn24)CCC3)CC1	-14%
O=C(NS(=O)(=O)c1ccc(Br)s1)c1ccc(Cl)cc1Cl	-18%
CC(=O)N1CCC(N2C[C@@H]3OCC(=O)N(Cc4ccccn4)[C@@H]3C2)CC1	-2%[39.2 µM]

12 of the compounds above, bar-delimited:
Structure | nsP2pro inh
CC(NC(=O)c1ccc2c(c1)CCN2S(C)(=O)=O)c1ccccc1 (stereo unspecified) | -6%
CC1=C[C@@H](CN2CCC(O)CC2)[C@H](C(C)C)C[C@H]1Cc1nnc(-c2ccncc2)o1 | -6%[39.2 µM]
COc1ccc2c3ccnc4ccc(=O)n(c2c1)c43 | 8%
Cc1cc(NS(=O)(=O)c2ccc(NC(=O)Cc3ccc(Cl)c(Cl)c3)cc2)on1 | i
COc1ccc2nc(N(Cc3cccnc3)C(=O)c3ccco3)sc2c1 | -11%
CCNc1ncnc2sc3c(c12)CCN(Cc1ccco1)C3 | -7%
COc1ccc2c(c1)c(CC(=O)OC/C=C(\C)CC/C=C(\C)CCC=C(C)C)c(C)n2C(=O)c1ccc(Cl)cc1 | -3%
O=C(Nc1ccc(F)cc1)c1ccnc2[nH]ccc12 | 2%[39.2 µM]
Cc1ccc(-c2cc3c(n2-c2ccc(C)cc2)CC(C)(C)CC3=O)cc1 | -15%
NC(=O)c1c(NC(=O)c2ccncn2)sc2c1CCCC2 | 4%
COc1ccc(CC(=O)Nc2ccc(S(=O)(=O)Nc3cc(C)on3)cc2)cc1C | 3%
CN1CCN(c2ccc(-c3noc([C@@H]4CCCN4Cc4ccccc4)n3)cn2)CC1 | i

Remaining list, next part.
SMILES	nsP2pro inh
C[C@H]1CC[C@@H]2[C@@H](C)[C@H]3[C@H](C[C@H]4[C@@H]5CC=C6C[C@@H](O[C@@H]7O[C@H](CO)[C@H](O)[C@H](O[C@@H]8O[C@H](CO)[C@@H](O)[C@H](O)[C@H]8O)[C@H]7O[C@@H]7O[C@@H](C)[C@H](O)[C@@H](O)[C@H]7O)CC[C@]6(C)[C@H]5CC[C@]34C)N2C1	8%
O=C(CCSCCc1ccccn1)Nc1ccccc1C(F)(F)F	-25%
CCC(=O)OCc1cc(=O)n2nc(C3CC3)sc2n1	-18%
OC[C@H]1O[C@@H](n2cnc3c2NC=NC[C@H]3O)C[C@@H]1O	-10%
Cc1ccccc1C(=O)Nc1nc2nc(C)c(C)c(=O)n2[nH]1	-13%
COc1ccc(C2Nc3ccccc3C(=O)N2Cc2ccccc2)cc1COc1ccc(Cl)cc1 (stereo unspecified)	?
COCCc1nn2c(=O)cc(COC(=O)COc3ccccc3C)nc2s1	-23%
COc1ccc(CN2CCCC3(CC(c4cccc(C(F)(F)F)c4)=NO3)C2)cc1 (stereo unspecified)	i
CC1=C(c2ccc(Cl)cc2)S(=O)(=O)N=C1N1CCN(c2cccc(C)c2)C(C)C1 (stereo unspecified)	34%
CC(=O)NC(c1cc(Cl)c2cccnc2c1O)C1CC1 (stereo unspecified)	i
CSc1ccc(CNC(=O)C2(c3ccc(NS(C)(=O)=O)cc3)CCCCC2)cc1	-7%
CC(=O)c1ccc(NC(=O)CCc2c(C)nc3c(c(C)nn3-c3ccc(C)cc3)c2C)cc1	-17%
COc1cccc(OC2=NS(=O)(=O)c3ccccc32)c1	-3%
COc1cccc(C2=Nn3c(nnc3-c3cc(OC)ccc3OC)SC2)c1	4%
O=C1CCC=CC1(O)C(=O)OCc1ccccc1O[C@@H]1O[C@H](CO)[C@@H](O)[C@H](O)[C@H]1O (stereo partly specified)	23%[10 µM]

2 entries drawn at random from those above, as already listed:
SMILES	nsP2pro inh
COc1ccccc1OCC(=O)N(Cc1ccc(Cl)cc1)CC1CCCO1 (stereo unspecified)	-17%
CC1=C(c2ccc(Cl)cc2)S(=O)(=O)N=C1N1CCN(c2cccc(C)c2)C(C)C1 (stereo unspecified)	34%

(list continues)
SMILES	nsP2pro inh
Cc1ccc(N2CCN(S(=O)(=O)c3ccc4c(c3)CC(=O)N4)CC2)cc1	-6%[39.2 µM]
O=C(Nc1ccc(-c2nc3ccccc3o2)c(O)c1)c1ccccc1	-13%
CC(C)C(=O)NCC(=O)N1CCC2(CC1)Nc1ccccc1NC2=O	-6%
[2H]C([2H])([2H])C(O)([C@@H](C)/C=C/[C@@H](C)[C@H]1CC[C@H]2/C(=C/C=C3C[C@@H](O)C[C@H](O)C3)CCC[C@]12C)C([2H])([2H])[2H]	12%
CCC(C)NC(=O)Cn1nc(C)c2sc(-c3ccccc3)nc2c1=O (stereo unspecified)	-4%
CCNC(=O)c1noc(-c2cc(C(C)C)c(O)cc2O)c1-c1ccc(CN2CCOCC2)cc1	?
COc1ccccc1N1CCN(CC(O)COc2ccc(C)cc2C(C)(C)C)CC1 (stereo unspecified)	-3%
COc1ccccc1CNC(=O)Cn1c(=O)oc2ccccc21	-19%
CCC1(C)CC(=O)NC1=O (stereo unspecified)	2%
C=C(C)[C@@H]1[C@H]2OC(=O)[C@H]1[C@]1(O)C[C@H]3O[C@]34C(=O)O[C@H]2[C@]14C	7%
CCc1ccccc1NC(=O)Nc1nnc(N(CC)c2ccccc2)s1	-16%
CN(C(=O)C1=CC(c2ccc3c(c2)OCO3)=NS(=O)(=O)N1C)c1ccccc1	-17%
CC(=O)NCCC(=O)N[C@@H](CCC(N)=O)C(=O)N[C@@H](CO)C(=O)N[C@@H](CCC(N)=O)C(=O)N[C@@H](CCC(N)=O)C(=O)N[C@H](C(=O)N[C@@H](Cc1ccccc1)C(=O)N[C@]1(C)CCCCCCC=CCCC[C@@](C)(C(=O)N[C@@H](CCC(N)=O)C(=O)N[C@@H](CC(N)=O)C(N)=O)NC(=O)[C@H](CC(C)C)NC(=O)[C@H](CC(C)C)NC(=O)[C@@H](CCCNC(=N)N)NC(=O)[C@H](Cc2c[nH]c3ccccc23)NC(=O)[C@H](CC(C)C)NC(=O)[C@H](CC(N)=O)NC1=O)[C@H](C)O	i
Cc1cc(SCc2sc(-c3ccc(C(F)(F)F)cc3)nc2C)ccc1OCC(=O)O	231%[activator]
COCc1c(O)c(C(=O)O)c(C)c2c1OC(=O)c1c(C)cc(O)c(CO)c1O2	98%[activator]
CCOCCCNC(=O)N1CCC2(CC1)CC(N(Cc1ccc(F)cc1)C1CC1)CCO2 (stereo unspecified)	-2%
Cc1ccc(NC(=O)CCS(=O)(=O)c2ccc(Br)cc2)c(C)c1	-25%
COc1cc(O)c(C(CC(=O)N2CCC(C)CC2)c2ccc(OC)c(OC)c2)c(OC)c1 (stereo unspecified)	i
COCCCNC(=O)CSc1nc2ccccc2c(=O)n1Cc1ccco1	-25%
CC(C)NC(=O)C[C@@H]1O[C@H](CNC(=O)C2CC2)[C@@H](O)[C@H]1O	i
COc1ccc(-c2nnc3n2N=C(c2cc(OC)ccc2OC)CS3)c(OC)c1	i
O=C(NC1CCCc2c1cnn2-c1ccc(F)cc1F)c1ccncc1 (stereo unspecified)	-10%
CCCN1C[C@H](CSC)C[C@@H]2c3cccc4[nH]cc(c34)C[C@H]21	-7%&-3%
COc1ccc(CNC(=O)CCCN2C(=O)CCn3nc(-c4cn(C)c5ccccc45)cc32)cc1	-11%
Cc1c(CC(=O)NCCc2ccc(Cl)cc2)c(=O)oc2c(C)c3occ(C(C)(C)C)c3cc12	-19%
COc1cc(O)c(C(CC(=O)N2CCOCC2)c2ccc(OC)c(OC)c2)c(OC)c1 (stereo unspecified)	i
Cc1oc(-c2ccc(C(=O)Nc3ccc(F)cc3F)cc2)nc1COc1ccccc1	-19%
Fc1cc(Nc2nc(-c3ccncc3)nc3ccccc23)ccc1-c1cncnc1	-4%
CC(C)N1CC2CCC(C1)N2S(=O)(=O)C1CC1	i
CC(=O)N1CCN2C(=O)N(Cc3ccc(F)cc3)C[C@H]2C1	?
Cc1ccccc1NC(=O)Cn1nc(-c2ccccc2)nc(Cc2ccccc2)c1=O	-20%
Fc1cc(-c2cccc3ncc(-c4cnn(C5CCNCC5)c4)nc23)cc(F)c1CN1CCOCC1	87%[activator]
O=C(Nc1ccc(-n2ccnc2)c(F)c1)Nc1nnc(-c2ccncc2)s1	i
COc1ccc(OC)c(CNC(=O)c2c(C)oc3ncn(CC(C)C)c(=O)c23)c1	-14%
Clc1ccc(C2(c3ccc(-c4cn[nH]c4)cc3)CCNCC2)cc1	135%[activator]
O=C(CCn1ccc2cc(S(=O)(=O)N3CCCC3)ccc21)NCc1ccccc1Cl	-16%
N#CC(=C(/N)Sc1ccccc1N)/C(C#N)=C(\N)Sc1ccccc1N	?
C1Cc2nnc(C3CC3)n2CCN1	17%
O=C(NC1CCCCC1)N[C@H]1CO[C@H]2[C@@H]1OC[C@@H]2n1cc(-c2ccccc2)nn1	-2%[39.2 µM]
CCc1ccc(NC(=O)N2CCN(C)C3(CCC(=O)N(C)CC3)C2)cc1 (stereo unspecified)	3%

This is a subset (hit frequency here may not be typical).
